# HCMV UL50-53 inh: inhibitors of HCMV UL50-UL53 interaction, biochemical, HTRF; 0.15% of 190,000 active; normalized percent inhibition; inhibition, % (concentration not given with the values); HCMV UL50-UL53 nuclear egress complex (human cytomegalovirus);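 active = both replicates at 50% or more, plus weaker picks with an unusually low signal ratio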;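 note: stock transfer was 100 nL into about 20 µL; 0% = negative control wells and 100% = wells with untagged competitor protein; inactives centre near -12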
# GIV-Gai inh: inhibitors of GIV peptide binding to Galpha-i3, primary screen, biochemical, fluorescence polarization, FITC-GIV GBA peptide, rat Galphai3; 0.42% of 210,000 active; 90 min; hits give low values; scaled: aluminum fluoride 0%, vehicle 100%; percent of control (FP), % (no concentration beside the values); Guanine nucleotide-binding protein G(i) subunit alpha-3 (Rattus norvegicus), P08753;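 active = replicate mean at 85% of control or lower, very high polarization wells dropped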;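 note: wells of about 15 µL received 100 nL stock; the first replicate is given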
# Target sequence (P08753 whole entry, looked up): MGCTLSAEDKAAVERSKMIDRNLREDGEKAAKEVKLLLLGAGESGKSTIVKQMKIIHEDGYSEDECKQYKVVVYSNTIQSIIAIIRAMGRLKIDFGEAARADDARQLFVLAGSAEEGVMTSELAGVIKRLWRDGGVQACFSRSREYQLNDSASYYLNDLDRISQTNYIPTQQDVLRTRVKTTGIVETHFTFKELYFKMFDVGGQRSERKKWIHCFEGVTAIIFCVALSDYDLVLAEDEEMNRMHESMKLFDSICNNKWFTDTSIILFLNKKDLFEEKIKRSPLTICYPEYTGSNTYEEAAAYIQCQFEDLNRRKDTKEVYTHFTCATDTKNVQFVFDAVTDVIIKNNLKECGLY
# Sa growth 42C: S. aureus growth inhibition at 42 and 30 °C, primary screen, LtaS inhibitor project, RN4220, two temperatures; AID 720641, 2013; 0.53% of 170,000 active; relative growth, % (no concentration beside the values); OD600, 20 h, 42 °C; hits give low values;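 active = growth at 42 °C up to 50% and 20 or more points under that at 30 °C, or under 10% at both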;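 note: 300 nL library stock went into each well; scaled to the means of positive and negative controls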
# Sa growth 42C second temp: recorded beside Sa growth 42C, whose call it bears; relative growth, %; measured here: growth at 30 °C;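 optical density after 20 h as mean of two plates; 100% = untreated growth and lower means inhibition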
# * = called active by the depositor; nt = not tested or not shown; & = joins results of further samples.
# The first 16 compounds (preview)
SMILES,HCMV UL50-53 inh,GIV-Gai inh,Sa growth 42C,Sa growth 42C second temp
N#Cc1ccccc1NC(=O)CN1CCN(S(=O)(=O)c2ccc(Br)s2)CC1,-18.2,nt,99.3,91.7
O=C(CC1(C(F)(F)F)NCCN1)c1ccco1,nt,101.1,131.2,88.5
CC(=O)NC(NCCC12CC3CC(CC(C3)C1)C2)(C(F)(F)F)C(F)(F)F,-8.0,nt,101.8,85.9
O=C(Cc1nc2ccccc2[nH]1)NCc1ccc(Cl)cc1,-40.1,nt,117.2,90.8
COc1ccccc1NC(=O)c1cc(C2CC2)nc2c1c(C)nn2-c1ccc(C)cc1,nt,98.0,89.0,81.7
CCc1c(C)nc(SCC(=O)N(C(C)C)C(C)C)[nH]c1=O,-6.4,96.3,85.8,92.2
CCN(CC)c1ccc(NC(=O)Cn2c3ncccc3c(=O)n2-c2ccccc2)c(C)c1,-23.9,106.9&105.8,96.5,88.5
CCN(CC)CCn1c2ccccc2n2cc(C)nc12,-1.0,112.8,98.8,100.0
O=C(Cc1ccccc1)Nc1ccccc1C(F)(F)F,-4.5,nt,101.7,101.2
COc1cc(C2Nc3ccccc3NC3=C2C(=O)CC(c2ccc(Cl)cc2)C3)cc(Br)c1O (stereo not given),-9.1,97.8,nt,nt
N#CC(=C1CCCCC1)c1nc2ccccc2s1,-13.8,nt,114.2,86.5
CCCN1C(=O)c2cc(C(=O)N3CCCC3)nn2CC1(C)C(=O)NC1CCCC1 (stereo not given),-0.9,95.0,nt,nt
Cc1ccc(C)c(S(=O)(=O)N2CCC(N3CCN(Cc4ccc(F)cc4)C(=O)C3=O)CC2)c1,-23.6,97.6,nt,nt
CCNC(=O)n1nccc1C(C)Oc1ccccc1 (stereo not given),-12.8,101.9,nt,nt
CCC(=O)N1c2ccccc2CC1C(=O)NCCN1CCN(c2cccc(C)c2C)CC1 (stereo not given),nt,97.2,98.4,92.0
CC(C)OCCCn1c(SCC(=O)c2ccccc2)nc2c(sc3ccccc32)c1=O,nt,100.3,86.7,89.4

# All compounds of this part, from the start:
SMILES,HCMV UL50-53 inh,GIV-Gai inh,Sa growth 42C,Sa growth 42C second temp
N#Cc1ccccc1NC(=O)CN1CCN(S(=O)(=O)c2ccc(Br)s2)CC1,-18.2,nt,99.3,91.7
O=C(CC1(C(F)(F)F)NCCN1)c1ccco1,nt,101.1,131.2,88.5
CC(=O)NC(NCCC12CC3CC(CC(C3)C1)C2)(C(F)(F)F)C(F)(F)F,-8.0,nt,101.8,85.9
O=C(Cc1nc2ccccc2[nH]1)NCc1ccc(Cl)cc1,-40.1,nt,117.2,90.8
COc1ccccc1NC(=O)c1cc(C2CC2)nc2c1c(C)nn2-c1ccc(C)cc1,nt,98.0,89.0,81.7
CCc1c(C)nc(SCC(=O)N(C(C)C)C(C)C)[nH]c1=O,-6.4,96.3,85.8,92.2
CCN(CC)c1ccc(NC(=O)Cn2c3ncccc3c(=O)n2-c2ccccc2)c(C)c1,-23.9,106.9&105.8,96.5,88.5
CCN(CC)CCn1c2ccccc2n2cc(C)nc12,-1.0,112.8,98.8,100.0
O=C(Cc1ccccc1)Nc1ccccc1C(F)(F)F,-4.5,nt,101.7,101.2
COc1cc(C2Nc3ccccc3NC3=C2C(=O)CC(c2ccc(Cl)cc2)C3)cc(Br)c1O (stereo not given),-9.1,97.8,nt,nt
N#CC(=C1CCCCC1)c1nc2ccccc2s1,-13.8,nt,114.2,86.5
CCCN1C(=O)c2cc(C(=O)N3CCCC3)nn2CC1(C)C(=O)NC1CCCC1 (stereo not given),-0.9,95.0,nt,nt
Cc1ccc(C)c(S(=O)(=O)N2CCC(N3CCN(Cc4ccc(F)cc4)C(=O)C3=O)CC2)c1,-23.6,97.6,nt,nt
CCNC(=O)n1nccc1C(C)Oc1ccccc1 (stereo not given),-12.8,101.9,nt,nt
CCC(=O)N1c2ccccc2CC1C(=O)NCCN1CCN(c2cccc(C)c2C)CC1 (stereo not given),nt,97.2,98.4,92.0
CC(C)OCCCn1c(SCC(=O)c2ccccc2)nc2c(sc3ccccc32)c1=O,nt,100.3,86.7,89.4
Cc1nc(Nc2ccc(NC(=O)Nc3ccc(F)cc3)cc2)cc(N(C)C)n1,-12.6,103.6,nt,nt
COc1cccc(OCCOc2ccc(-c3nc4sc5c(c4c(=O)[nH]3)CCCC5)cc2OC)c1,-11.8,102.7,nt,nt
N#Cc1ccc(COC(=O)c2cc(=O)[nH]c3ccccc23)cc1,-5.5,nt,90.3,87.1
Fc1ccc(-c2cc(-c3nc4c5ccccc5ncn4n3)[nH]n2)cc1,-31.5,106.0,99.6,89.1
C=CCN1C(=O)/C(=C/N(C(C)=O)c2ccccc2)SC1=S,-23.3,113.3,99.8,95.0
Cc1cccc(C(C)C)c1NC(=O)Cn1c(=O)oc2cc(S(=O)(=O)N3CCCC3)ccc21,5.9,98.8,106.2,95.3
NS(=O)(=O)c1ccc(CNC(=O)c2ccccc2C(F)(F)F)cc1,-7.4,nt,92.2,98.5
COc1ccc(C(=O)Nc2ccc(-c3n[nH]c(=S)o3)cc2)cc1OC,7.7,104.5,73.9,77.6
CCC(=O)Nc1cc2ccccc2cc1NC(=O)CC,-46.0,nt,90.7,89.6
CCC1=Nc2cc(C(=O)N3CCN(C(=O)c4ccco4)CC3)ccc2Sc2ccccc21,-15.5,108.9,96.9,66.5
Cc1sc(-c2ccno2)cc1S(=O)(=O)N1CCCCC1C (stereo not given),3.5,104.2,nt,nt
CCCc1cc(N2CCN(c3ccccc3F)CC2)n2cnnc2n1,-23.1,99.0,84.8,85.5
COc1ccc(-c2nn(-c3ccccc3)cc2C(=O)Nc2ccccc2OC)cc1,12.2,100.9,102.9,99.4
CCOc1ccc(C(=O)Nc2c(C(=O)c3ccc(OC)cc3)oc3ccccc23)cc1,-28.7,106.9,82.2,90.0
O=C(c1ccc2c(c1)OCCO2)N1CCC(c2nc3c(nnn3Cc3ccc(F)cc3)c(=O)[nH]2)CC1,9.4,102.0,nt,nt
COc1ccc(-c2noc(CC(=O)NCCCN3C(C)CCCC3C)n2)cc1 (stereo not given),nt,110.2,100.5,85.7
O=C(NC1CCCCNC1=O)c1cnn(-c2ccccc2)c1C(F)(F)F (stereo not given),-8.4,99.7,103.5,97.7
CCOc1ccc(C(CNC(=O)c2cc(-c3ccccc3)on2)N2CCCC2)cc1 (stereo not given),-17.1,101.7,nt,nt
CCCC(=O)N1CC(=O)Nc2ccc(Cl)cc2C1c1ccccc1 (stereo not given),-7.1,99.9,101.6,87.7
O=C(Nc1ccc(Cl)cc1)N1CCN(c2cnccn2)CC1,-20.5,101.0,nt,nt
C/C(=N/NC(N)=O)c1ccc2c(c1)Cc1ccccc1-2,-8.8,108.2,87.5,90.9
Cn1c(-c2ccccc2O)[n+](C)c2ccccc21,8.9,nt,95.2,90.0
CC(C)[C@H](NC(=O)c1ccccc1)C(=O)N1CCN(Cc2ccccc2)CC1,-4.5,nt,93.6,92.2
CC(=O)N(c1ccc(C(F)(F)F)cc1)S(=O)(=O)c1ccc(N2C(=O)CCC2=O)cc1,-35.7,100.8,86.7,92.6
COc1ccc(C(CNC(=O)Cc2cc(OC)c(OC)c(OC)c2)N2CCCC2)cc1 (stereo not given),-8.8,nt,99.6,98.8
Cn1nc(C(C)(C)C)cc1NC(=O)Nc1cccc2ccccc12,-0.4,112.4,101.0,95.8
c1ccc(Oc2nc(Oc3ccccc3)nc(Oc3ccccc3)n2)cc1,-16.9,103.4,105.8,89.0
Cc1ccc(C2C(C(=O)c3ccco3)=C(O)C(=O)N2CCCN(C)C)o1 (stereo not given),-3.7,105.9,102.3,82.6
CC1=C(C#N)/C(=C/Nc2cccc(Cl)c2)CC(=O)N1,-21.6,106.9,nt,nt
COc1cccc(OCc2nnc(SCC(=O)NC(C)(C)C)o2)c1,-18.9,103.3,116.4,97.2
Nc1ccc(CS(=O)(=O)c2ccc(Cl)cc2)c(Cl)c1,-2.0,101.6,105.9,86.6
Cc1nc2cccnc2n1-c1cccc(C(=O)NCCc2ccc(S(N)(=O)=O)cc2)c1,nt,102.7,146.0,90.4
CCCCN(C)C(=O)Cn1nc(-c2ccc(Cl)cc2)ccc1=O,-33.0,103.9,93.5,82.0
O=C(Nc1ccc(-c2nc3ccccc3s2)c(O)c1)c1ccc(Cl)c([N+](=O)[O-])c1,-25.3,99.5,nt,nt
Cc1c(C(=O)OCc2ccc(Cl)cc2)nnn1-c1ccc(Cl)cc1,1.9,98.6,nt,nt
COc1ccc(C2=NOC(CNC(N)=S)C2)cc1 (stereo not given),-7.9,100.9,11.4,3.0
CCOC(=O)c1cccnc1SCC(=O)Nc1cc(OC)ccc1OC,5.9,101.7,89.9,82.6
Cc1ccccc1-c1nc2scc(CCNS(C)(=O)=O)n2n1,6.6,105.5,nt,nt
COc1ccc(C2CC(=O)c3cnc(NC(=O)c4ccccc4)nc3C2)cc1OC (stereo not given),-21.1,92.8,nt,nt
CCNc1ccc(-c2nc(-c3ccccn3)no2)cc1[N+](=O)[O-],-30.7,102.2,100.5,95.9
CCCCCSc1nc2ccccc2n1Cn1nnc2ccccc2c1=O,2.1,nt,119.1,97.9
O=C(CC1COc2ccccc2O1)Nc1cccc(C(F)(F)F)c1 (stereo not given),-8.7,nt,64.5,75.8
CCC(CC)C(=O)N1CCCN(C(=O)C(CC)CC)CC1,12.1,100.8,94.5,93.1
COc1ccc(C2N=C(N)Nc3nc4ccccc4n32)c(OC)c1OC (stereo not given),-33.0,99.5,94.2,88.9

# Further structures follow.
SMILES,HCMV UL50-53 inh,GIV-Gai inh,Sa growth 42C,Sa growth 42C second temp
Cc1cccc(OC(C)c2nc(-c3ccccc3)no2)c1 (stereo not given),-7.2,103.7,82.9,83.0
CCO/C=C(\C#N)c1nc(-c2ccccc2)cs1,-38.2,nt,40.4,10.6
COc1ccc(CCC(=O)NCCc2cn3ccccc3n2)cc1,nt,104.1,125.5,93.6
Cc1ccc(/C=N/NC(=O)c2ccc(NS(=O)(=O)c3cccs3)cc2)o1,-39.8,nt,88.5,88.8
Cc1ccc2c(c1)N(C(=O)CCC(=O)NCc1cccc(F)c1)CC(C)O2 (stereo not given),-10.7,95.7,101.0,88.7
O=C(NCC(c1cccnc1)N1CCOCC1)Nc1ccccc1 (stereo not given),-20.3,99.6,93.3,87.1
NC(=O)Nc1ccc(C(=O)OCc2cc(=O)n3cc(Br)ccc3n2)cc1,-36.6,nt,102.1,93.1
CCC1CN(C(=O)Nc2ccc(C)c(F)c2)c2ccccc2S1 (stereo not given),nt,101.5,100.3,104.8
COC(=O)c1ccc(CSc2nc3c([nH]c4ccccc43)c(=O)n2-c2cc(C)cc(C)c2)o1,nt,106.0,115.4,99.1
CCOc1ccc(CN2CCN(Cc3ccc4c(c3)c3ccccc3n4CC)CC2)cc1,-8.9,104.0,109.0,89.8
COc1ccc(N2CCN(C(=O)C3CCCN(c4nc5cccnc5s4)C3)CC2)cc1 (stereo not given),-35.1,108.0,nt,nt
COc1cc(/C=N/NC(=O)c2ccoc2C)ccc1OCC(=O)N1C(C)CCCC1C (stereo not given),-19.2,nt,100.2,99.5
COc1ccc(C(=O)N(Cc2cc(OC)c(OC)c(OC)c2)C2CCS(=O)(=O)C2)cc1Cl (stereo not given),-10.3,101.6,106.4,91.3
Cc1ccc(S(=O)(=O)c2c(O)c3ccc(C(=O)Nc4ccc(Cl)cc4)cc3[nH]c2=O)cc1,-7.3,100.8,nt,nt
Cc1nn(CCC#N)c(C)c1Oc1ccccc1O,-22.2,nt,113.4,89.0
O=C(CSc1nnc2scc(-c3ccc(Cl)cc3)n12)c1ccc2c(c1)OCO2,nt,99.5,97.3,69.2
CN1C(=O)/C(=C\c2ccc(Cl)cc2Cl)OC1=S,nt,101.7,95.6,91.3
CC(=O)Oc1c(C)cc(C)c2ccc(C)nc12,-25.0,98.5,133.1,54.4
Cc1ccc2cc3c(nc2c1)N(C(=O)c1ccc(Br)cc1)CC3,-3.4,110.5,nt,nt
CC1=CC(C)C2C(=O)N(Cc3ccc[n+](C)c3)C(=O)C2C1 (stereo not given),-17.7,102.0,94.5,94.4
O=C1CCC(C(=O)Nc2sc3c(c2-c2nc4ccccc4[nH]2)CCCC3)=NN1,-36.8,nt,125.3,86.4
Cc1ccc2nc(-c3cccc4ccccc34)[nH]c2c1,-55.1,101.1,56.8,19.5
Cc1cccc(C(=O)Nc2nc(-c3nnn(-c4cc(F)ccc4F)c3C)ns2)c1,nt,106.4,118.8,86.8
CC(C(=O)Nc1ccc(S(N)(=O)=O)cc1)N(C)Cc1ccccc1F (stereo not given),-17.0,nt,84.8,90.8
CNC(=O)COC(=O)c1cccn1C,-3.9,nt,92.9,95.2

# This is a random part of the collection, and some 0.83% of all compounds hit somewhere here.
